# Rango release inh: prevents RanGTP from dissociating the Rango-importin beta complex. Biochemical FRET Rango-importin beta, RanGTP-induced dissociation. hit rate 0.071% among 340,000. Potency, µM (titrated, usually from 46.1 µM), inactives show at the highest dose activity change, negative = inhibition; active means falling FRET ratio curve, often poorly fitted, with flat reads before Ran was added; inconclusive means other falling curves, or compound fluorescence or quenching; inactive means flat or rising ratio curve;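 further: potency means the concentration at half of the fitted maximal effect; % of control where 0% means no effect; nearly all actives have a fitted effect of over 45% in size; -100% = wells without RanGTP and RCC1; the record marks most hits as doubtful in a second field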
#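 Compounds preincubate 5 min with complex of recombinant Rango and importin beta in PBS with 1 mM DTT. Ran (0.6 uM) loaded with 2 mM GTP plus 0.2 uM RCC1 starts dissociation; FRET is recorded 45 min later.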
# GLA inh pH 4.5: alpha-galactosidase A (human) inhibition, pH 4.5; purified enzyme, 4-MU-alpha-Gal fluorescence, pH 4.5; P06280; activity change, negative = inhibition, % at 105 µM; 230,000 tested, under 10 active; inconclusive = small, poorly fitted or top-dose-only inhibition, or a rising curve; inactive = flat fitted curve, though single readings scatter; no compound was filed as active;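 further: 0% = full activity with enzyme and -100% = basal without enzyme; dose as in the result columns while the protocol names 77 µM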
# Target sequence (P06280 whole entry, looked up): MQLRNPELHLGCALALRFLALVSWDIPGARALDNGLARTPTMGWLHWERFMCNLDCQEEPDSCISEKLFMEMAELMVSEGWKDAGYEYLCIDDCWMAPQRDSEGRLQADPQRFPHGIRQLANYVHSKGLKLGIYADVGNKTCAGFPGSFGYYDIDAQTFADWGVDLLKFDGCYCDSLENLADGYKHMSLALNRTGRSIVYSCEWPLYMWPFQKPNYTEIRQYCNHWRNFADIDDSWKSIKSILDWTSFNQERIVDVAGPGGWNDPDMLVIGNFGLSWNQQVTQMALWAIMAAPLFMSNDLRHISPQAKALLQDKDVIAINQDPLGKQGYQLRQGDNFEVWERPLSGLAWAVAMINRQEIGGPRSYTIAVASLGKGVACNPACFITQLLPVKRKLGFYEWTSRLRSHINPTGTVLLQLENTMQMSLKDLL
# miR-21 reporter: miR-21 reporter, rising signal | Potency, µM (top dose mostly 38.3 µM), without a hit: at the highest dose reporter change, positive = more light | 340,000 tested, under 10 active | HeLa miR-21 FLuc reporter, luciferase, 48 h | AID 2288; active = well fitted rising curve with a large enough effect; inconclusive = small, poorly fitted or top-dose-only effect; inactive = no such curve, though single readings can be large or run the other way;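 further: % of control where 0% means no effect; miR-21 action dims this reporter so a rising signal means less miR-21 action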
#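 HeLa cells stably expressing CMV-driven firefly luciferase with a downstream miR-21 binding sequence, endogenously expressing miR-21, were treated with titrations (up to about 40uM final) for 48 hours at 37 degree Celsius. Luciferase luminescence was read after lysis.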
# Rango complex inh: Rango-importin beta binding inhibition. Q14974. Rango CFP/YFP FRET sensor + importin beta, 45 min. Potency, µM (top dose mostly 92.2 µM), inactives show top-dose inhibition of complex formation. hit rate 0.031% among 340,000; active = rising FRET ratio curve, often small or poorly fitted; inconclusive = mostly compound fluorescence or quenching in the first reads; inactive = flat curves in all reads;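 further: potency means the concentration at half of the fitted maximal effect; 0% = DMSO wells and 100% = buffer wells lacking importin beta; nearly all actives have a fitted effect of over 15% in size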
#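 FRET biosensor Rango (snurportin 1 IBB between N-terminal EYFP and C-terminal Cerulean), 50 nM in PBS/1 mM DTT/0.02% Tween-20/0.1% BSA, preincubated 5 min RT with compound; 0.125 microM importin beta added, 45 min RT, CFP/YFP FRET ratio read.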
# Starred values were filed as active, the others as inactive; ? = inconclusive; / = not tested or not shown; & = joins results of further samples; [ ] = dose if it differs, or a comment. These rows are one share of the data; the hit share may differ from the screen's.
compound | Rango release inh | GLA inh pH 4.5 | miR-21 reporter | Rango complex inh
COc1ccc(NC(=S)Nc2cc(C)ccn2)c(OC)c1 | 4% | 1 | -63% | 1.8%
O=C(c1ccco1)N1CCN(S(=O)(=O)c2ccc3c(c2)CCN3C(=O)C2CCC2)CC1 | 2% | -9 | -4% | -6.0%
CN(C)CCCn1c2c(c(SCC(=O)Nc3cccc4ccccc34)nc1=O)CCC2 | -11% | / | / | -4.9%
C(=N\Nc1nc(N2CCCC2)nc(N2CCCC2)n1)/c1cccnc1 | 12% | 4 | -2% | -2.1%
CCCCOCCCNC(=O)c1c(-c2ccccc2)noc1C | 1% | 5 | 0% | -0.5%
Cc1ccc(C)c(OCc2cc(C(=O)N3CCN(c4ccccc4C)CC3C)no2)c1 (stereo unspecified) | -19% | / | -32% | 2.4%
Cc1cc(C)c(S(=O)(=O)N2CCN(C)CC2)c(C)c1 | 2% | -2 | -2% | -0.1%
CC(=O)Nc1ccc(S(=O)(=O)N/N=C/c2cccnc2)cc1 | 15% | / | -5% | -0.1%
COc1ccc(C(=O)Oc2cc(N)n(S(=O)(=O)c3ccc(C)cc3)n2)cc1 | -7% | / | 6% | -2.0%
C/C(=C\C(=O)c1ccc(F)cc1)NCc1ccc2c(c1)OCO2 | 6% | -5 | -11% | -2.0%

# Laid out differently: results already given
Compound: CN(C)CCCn1c2c(c(SCC(=O)Nc3cccc4ccccc34)nc1=O)CCC2
  Rango release inh: -11%; GLA inh pH 4.5: /; miR-21 reporter: /; Rango complex inh: -4.9%

Compound: C(=N\Nc1nc(N2CCCC2)nc(N2CCCC2)n1)/c1cccnc1
  Rango release inh: 12%; GLA inh pH 4.5: 4; miR-21 reporter: -2%; Rango complex inh: -2.1%

Compound: CCCCOCCCNC(=O)c1c(-c2ccccc2)noc1C
  Rango release inh: 1%; GLA inh pH 4.5: 5; miR-21 reporter: 0%; Rango complex inh: -0.5%

Compound: Cc1ccc(C)c(OCc2cc(C(=O)N3CCN(c4ccccc4C)CC3C)no2)c1 (stereo unspecified)
  Rango release inh: -19%; GLA inh pH 4.5: /; miR-21 reporter: -32%; Rango complex inh: 2.4%

# Following part
compound | Rango release inh | GLA inh pH 4.5 | miR-21 reporter | Rango complex inh
COCCN1C(=O)c2ccccc2C(C(=O)NCCCN2CCCC2)C1c1c[nH]c2ccccc12 (stereo unspecified) | -7% | -1 | -2% | 2.2%
Cc1ccc(Nc2nc(-c3sc(NC(=O)c4ccccc4)nc3C)cs2)cc1 | -12% | -12 | -5% | 4.3%
CCOC(=O)c1cnc2c(ccc3ccccc32)c1NCCO | -3% | -4 | -44% | -0.6%
CN(CC(=O)Nc1ccc(Cl)cc1)CC(=O)Nc1cccc(Br)c1 | 9% | / | -7% | -1.3%
CC1CCCN(C(=O)COC(=O)COc2ccc(C#N)cc2)C1 (stereo unspecified) | 40% | / | / | 1.9%
CCc1cc(C(=O)OC)c(NC(=O)CSc2nccn2C)s1 | 2% | / | -6% | 1.3%
CC(C)(C)n1nc2c(c1NC(=O)c1ccc(C(F)(F)F)cc1)CS(=O)(=O)C2 | 1% | / | 0% | 0.9%
CCc1ccccc1NC(=O)CN(C)C(=O)Cn1cnc2ccc(Cl)cc2c1=O | 18% | / | / | 1.0%
Cc1ccc(S(=O)(=O)N(C)CC(=O)N(CC(C)C)C2CCS(=O)(=O)C2)cc1 (stereo unspecified) | -19% | / | / | -0.1%
CC1CCN(C(=O)Cn2c(=O)n(CCc3ccccc3)c(=O)c3ccccc32)CC1 | 18% | -4 | 1% | -0.1%
c1nc(N2CCCCCC2)c2[nH]cnc2n1 | 22% | -8 | -9% | -1.7%
CCOC(=O)C1CCCN(c2ncnc3c2oc2ccccc23)C1 (stereo unspecified) | 18% | 0 | -60% | -0.1%
Cc1ccc(CSc2nc3nc(C)cc(C)n3n2)cc1 | 27% | / | -44% | -3.4%
O=C1c2cccc3cccc(c23)C(=O)N1CCCn1ccnc1 | -9% | / | / | -0.6%
CC(C)=CCC[C@](C)(O[C@@H]1O[C@H](CO[C@@H]2O[C@H](CO)[C@@H](O)[C@H](O)[C@H]2O)[C@@H](O)[C@H](O)[C@H]1O)C1CC[C@]2(C)C1C(=O)CC1[C@@]3(C)CC[C@H](O[C@H]4O[C@@H](CO)[C@H](O)[C@@H](O)[C@@H]4O)C(C)(C)C3CC[C@]12C (stereo partly specified) | -6% | / | / | -0.3%
COc1ccc(/C=C2\CCC/C(=C\c3ccc(OC)c(OC)c3OC)C2=O)c(OC)c1OC | -14% | / | -2% | 0.2%
COc1ccccc1CNS(=O)(=O)c1ccc(NC(C)=O)cc1 | 1% | 5 | 5% | 5.8%
COc1ccc(N2CCN(C(=O)c3cccc(Cn4cc(Cl)cn4)c3)CC2)cc1 | 0% | -3 | -4% | 4.2%
CC(c1ccccc1)N1CCn2c(nc3cc(NS(C)(=O)=O)ccc32)C1 (stereo unspecified) | -12% | 5 | -5% | 0.5%
Cc1csc(NC(=O)c2ccc(C(=O)Nc3nc(C)cs3)cc2)n1 | / | -2 | 4% | /

# Next section:
# Second line of a record: Rango release inh | GLA inh pH 4.5 | miR-21 reporter | Rango complex inh
> Cn1cc(CNC(=O)c2ccc3nc(Cc4ccccc4F)oc3c2)cn1
 : -18% | / | -35% | -1.4%
> COC(=O)c1nnn(CC(=O)Nc2cc(Cl)ccc2C)c1C(=O)OC
 : 6% | -14 | -2% | ?
> COc1cccc(NC(=O)C(Sc2nnc3ccccn23)c2ccccc2)c1 (stereo unspecified)
 : -3% | -6 | -4% | 8.3%
> Cc1sc(NC(=O)c2ccco2)c(C(c2ccc(F)cc2)N2CCN(C)CC2)c1C (stereo unspecified)
 : 5% | -17 | 17% | -2.8%
> Cc1cc2ncn(S(=O)(=O)c3ccc(S(N)(=O)=O)cc3)c2cc1C
 : -3% | / | / | 0.3%
> N=c1c(C(=O)NC2CCCC2)cc2c(=O)n3ccccc3nc2n1CC1CCCO1 (stereo unspecified)
 : ? | / | -2% | ?
> COCc1nnc(NC(=O)c2ccc(NC(C)=O)cc2)s1
 : 0% | 1 | -13% | 0.5%
> COC(=O)[C@H]1[C@H](CCc2ccccc2)NC(=O)N(Cc2ccccc2)[C@@H]1C
 : 0% | -8 | / | -3.6%
> CN(C)S(=O)(=O)c1cccc(NC(=O)c2ccc3c(c2)OCCO3)c1
 : 2% | / | / | 1.4%
> COc1ccc(/C=N/NC(=O)C(=O)N2CCCC2)cc1
 : 14% | 8 | -5% | 0.0%
> CCOC(=O)C1CCCN(c2nc3ccccc3nc2C(C#N)C(=O)OCCOC)C1 (stereo unspecified)
 : ? | 0 | -4% | ?
> Cc1cccc2c1NC1(CCCC1)CC2C (stereo unspecified)
 : -8% | 1 | 5% | 1.1%
> CCN(CC)C(=O)Cn1c(=O)n(Cc2ccc(F)cc2)c(=O)c2sccc21
 : 16% | / | 1% | -0.1%
> O=S(=O)(Nc1cc(Cl)ccc1-n1cncn1)c1ccccc1Cl
 : -6% | / | / | -3.8%
> CNC(=S)N/N=C/c1cn(CCOc2ccccc2OC)c2ccccc12
 : -9% | -9 | 11% | -0.4%
> O=S1(=O)CCN=C2SC3=C(CCCC3)N21
 : -3% | 4 | -8% | -1.2%
> Cc1ccccc1N(C(=O)CCCC(=O)Nc1ccccn1)C(C(=O)NC1CCCC1)c1ccc(O)cc1 (stereo unspecified)
 : 21% | / | -2% | 4.2%
> CC1(C)C(=O)Nc2ccccc2N1C(=O)COc1ncnc2ccccc12
 : -1% | -6 | -4% | -0.9%
> O=C(Cn1ncn2c(cc3ccccc32)c1=O)NCCC1=CCCCC1
 : 17% | 1 | -2% | -1.0%
> CC(=O)c1cccc(S(=O)(=O)Nc2ccc3nc(C)sc3c2)c1
 : 6% | -1 | 10% | ?
> COC(=O)C1=C(C)NC(C)=C(C(=O)OC(C)C)C1c1cccc2nonc12 (stereo unspecified)
 : -12% | -5&-7 | -1% | -0.2%
> O=C(c1ccc2nc[nH]c2c1)N1CCN(c2cccc(Cl)c2)CC1
 : -6% | / | 15% | 5.5%
> O=C(/C(=C/c1ccncc1)n1ccnc1)c1ccc(Cl)cc1Cl
 : -26% | 0 | -1% | ?
> CC(=O)Nc1ccc(Br)c(Cl)c1
 : 24% | 1 | 6% | 1.8%
> COc1ccc(-c2cn3nc(C)c(C)nc3n2)cc1OC
 : ? | / | / | ?
> O=C(COC(=O)c1ncc(Cl)c(Cl)c1Cl)NCc1ccccc1
 : 0% | / | / | 1.0%
> CC(=O)N1CCc2cc(S(=O)(=O)NCC(=O)NCc3ccc(F)cc3)ccc21
 : -16% | / | 3% | 4.3%
> COC(C(=O)Nc1ccc(S(=O)(=O)Nc2cccc3ccccc23)cc1)c1ccccc1 (stereo unspecified)
 : -9% | 3 | -1% | 4.1%
> O=C(/C=C/c1ccc(O)c([N+](=O)[O-])c1)c1ccc2ccccc2c1
 : 11% | / | -16% | -0.4%
> O=C(Nc1ccc(N2CCOCC2)c(Cl)c1)c1ccccc1F
 : 12% | 4 | -60% | -2.4%
> CCOC(=O)C(C(C)C)C(N)Cc1ccc(F)cc1 (stereo unspecified)
 : 0% | 0[21.1 µM] | -3% | -3.0%
> Cc1ccc(S(=O)(=O)N(C)C)cc1NC(=O)COC(=O)C1COc2ccccc2O1 (stereo unspecified)
 : -22% | 1 | -2% | -1.6%
> C[C@H](NC(=O)c1[nH]cnc1C(=O)Nc1ccc(Cl)cc1)C(=O)OC(C)(C)C
 : 22% | 0 | 2% | 1.1%
> CCN1C(=O)[C@H]2[C@@H](c3ccc(C)cc3)N3C(=O)N(c4cccc(Cl)c4)C(=O)[C@@]3(CC)[C@H]2C1=O
 : 14% | / | / | -1.5%
> CC(C)(NO)/C(=N\O)c1ccc(Cl)cc1
 : -4% | 3 | 0% | -1.0%
> CC(C)(C)c1ccc(-c2conc2N)cc1
 : -2% | -17 | -25% | -4.1%
> Cc1[nH]c(=O)[nH]c(=O)c1S(=O)(=O)Nc1ccc(S(N)(=O)=O)cc1
 : 9% | / | 2% | 4.2%
> Cc1ccc(-c2nc3cnccn3c2Nc2ccc3c(c2)OCO3)cc1
 : 1% | 1 | 11% | -0.4%
> COc1ccc(/C=C/C(=O)Nc2cc(=O)n(C)c(=O)n2C)cc1
 : 0% | -1 | -46% | 3.0%
> COC(=O)Nc1nc2ccc(Sc3ccccc3)cc2[nH]1
 : 12% | 10&1&-15 | -4% | 6.1%
> Cc1ccnc(NC(=O)CCC(=O)N(CC(=O)NCc2ccc(F)cc2)Cc2ccccc2)c1
 : 26% | / | 8% | -4.2%
> CC(C)(C)N1CC(C(=O)Nc2cccc(Cl)c2Cl)CC1=O (stereo unspecified)
 : 9% | / | 1% | 7.3%
> C=CCn1c(SCC(N)=O)nnc1-c1ccccc1O
 : 1% | -4 | -8% | 0.8%
> CCc1ccc(S(=O)(=O)NC(=S)Nc2ccccc2)cc1
 : 2% | 6 | -2% | -1.9%
> CCc1[nH]nc2c1C(c1ccncc1)C(C#N)=C(N)O2 (stereo unspecified)
 : -2% | 3 | 0% | -2.7%
> Cc1ccc(CNC(=O)CCS(=O)(=O)c2ccc3nc(C)sc3c2)cc1
 : -15% | / | 1% | -4.9%
> CC(=O)N1CCN(CC(=O)O)CC1
 : / | -2 | 1% | /
> CCOC(=O)C1(CCCc2ccccc2)CCN(Cc2cn(CC)nc2C)CC1
 : -7% | -5 | 23% | -6.8%
> COC(=O)c1cc(NC(=O)c2c(C)noc2C)ccc1N1CCOCC1
 : 0% | / | -1% | -0.1%
> COc1cc(OC)c(OC)cc1CNCc1ccc2c(c1)OCO2
 : -3% | / | -4% | 0.0%
> Cc1cc(NC(=O)CSc2nnc(Cc3cccn3C)n2CCc2ccccc2)no1
 : ? | 9 | -8% | -4.5%
> Cc1cccc(NC(=S)N/N=C/c2ccc3c(c2)OCO3)c1
 : -13% | 2 | -50% | -2.9%
> CCCCNC(=O)Oc1ccc(C(=O)N2c3ccccc3NC(=O)C2C)cc1 (stereo unspecified)
 : -1% | / | 1% | 0.5%

# Source: PubChem
